gsp ag: gsp mutant agonism; gsp mutant cells, cAMP HTRF, 30 min; control for the full effect not named in the record; Potency, µM (doses to about 76.9 µM), inactives show at the top dose activation (cAMP increase), hits mostly activators; 340,000 tested, 0.13% active; active = well fitted activation curve with a large enough effect; inconclusive = small, poorly fitted or top-dose-only effect, or another doubt; inactive = no such curve, though single readings can be large or run the other way; cell line not stated here;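 also: phosphodiesterase inhibitor Ro 20-1724 added with compounds to block cAMP breakdown; potency is read from the fitted curve at half-maximal effect; nearly all actives have a fitted effect of over 60% in size; about a fifth of the inactives were tested at one dose only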
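Cells in DMEM/10% FBS with G418 were pretreated with compounds in DMSO plus […] (300 uM stock) for 30 min at 37C. cAMP was measured by HTRF (cAMP-d2 plus anti-cAMP antibody-K) after 30 min at room temperature.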
gsp antagonist: antagonists of gsp mutant (McCune-Albright syndrome); Potency, µM (titrated, usually from 76.9 µM), for the others: at the top dose activity change, negative = inhibition, hits mostly inhibitors; gsp-mutant cells, cAMP HTRF, 30 min; control for the full effect not named in the record; 340,000 tested, 0.4% active; active = falling curve of any shape with a large fitted effect; inconclusive = falling curve, mostly with a smaller effect; inactive = flat or rising curve; cell line not stated here;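 also: intracellular cAMP measured with PDE inhibitor Ro 20-1724 present during compound exposure; potency is read from the fitted curve at half-maximal effect; % is scaled to controls: 0 for no effect and ±100 for the full control effect; nearly all actives have a fitted effect of over 65% in size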
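Cells in G418 medium, seeded 16-24 h, 37C; buffer exchange to DPBS + 1 mM CaCl2, 0.5 mM MgCl2, 0.05% BSA; cpds in DMSO + […] (300 uM stock), 30 min 37C; HTRF cAMP detection.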
TRPML1 inh: inhibitors of human TRPML1 channel. activity change, negative = inhibition, % (concentration not given with the values). TRPML1-inducible cells, Ca2+ dye fluorescence, FDSS; hits give low values; inhibition of EC80 agonist-evoked calcium signal. Q9GZU1. 390,000 tested, 0.02% active; in the data active means activity change below about -50%; inconclusive means about -30% to -50%; inactive means above about -30%;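 also: stimulus is agonist 54-4 at its EC80 concentration; % is scaled to controls: 0 for no effect and ±100 for the full control effect; compound concentration not given in the record; the text of the record puts the active cut at -80%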
Target sequence (Q9GZU1 whole entry, looked up): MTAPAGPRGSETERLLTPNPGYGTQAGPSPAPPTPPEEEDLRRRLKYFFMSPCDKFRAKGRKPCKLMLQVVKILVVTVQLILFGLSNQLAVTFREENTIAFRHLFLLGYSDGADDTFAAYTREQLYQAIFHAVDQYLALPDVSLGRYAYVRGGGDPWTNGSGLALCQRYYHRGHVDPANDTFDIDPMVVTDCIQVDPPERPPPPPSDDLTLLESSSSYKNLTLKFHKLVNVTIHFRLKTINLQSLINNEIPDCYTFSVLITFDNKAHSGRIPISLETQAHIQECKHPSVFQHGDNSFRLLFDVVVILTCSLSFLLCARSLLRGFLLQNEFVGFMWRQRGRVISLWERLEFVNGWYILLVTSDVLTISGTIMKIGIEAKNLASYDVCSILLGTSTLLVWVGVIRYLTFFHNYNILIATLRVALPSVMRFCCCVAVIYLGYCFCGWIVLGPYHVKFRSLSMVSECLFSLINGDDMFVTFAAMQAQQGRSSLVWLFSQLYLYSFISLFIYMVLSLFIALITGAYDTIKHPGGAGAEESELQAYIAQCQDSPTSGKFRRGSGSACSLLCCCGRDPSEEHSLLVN
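Calcium fluorescence in TRPML1-DL cells induced overnight with Tet: a 110 s read after compound pin addition, then a 110 s antagonist read after challenge with 54-4 at 4 uM final (EC80).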
TRPV1 potentiator: potentiators of human vanilloid receptor 1 (TRPV1) | AID 540277 | TRPV1-expressing cells, Fluo-8 calcium influx, capsaicin EC20 potentiation; host cell line not named in the record; control for the full effect not named in the record | 320,000 tested, 0.02% active | Q8NER1 | potentiation, % at 8.33 µM; active means potentiation above 80%; inconclusive means 30% to 80%; inactive means below 30%; also: 0% is about no effect
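Fluo-8 calcium influx in TRPV1-expressing cells, kinetic read (ex 480/em 520 nm). Compound added and read 3 min for agonist activity, followed by capsaicin at EC20 final and 2 min further read for enhancement.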
Menin MLL FP FL: menin-MLL binding inhibition, fluorescein peptide; Fluorescence polarization, fluorescein-MLL peptide displacement from menin; FP activity change, % at 61.4 µM; 290,000 tested, under 10 active; AID 1766; inconclusive = falling polarisation curve, or a change in total fluorescence; inactive = total fluorescence flat and polarisation flat or rising; no compound was filed as active; the % refers to the polarisation; negative = inhibition;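 also: % of control where 0% means no effect; inhibitors lower the polarisation; unlabelled MLL peptide was the positive control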
Sfp PPTase inh: blocks B. subtilis Sfp PPTase activity | Q9F4F7 | Biochemical Sfp PPTase activity, qHTS | Potency, µM, inactives show max response, negative = inhibition, usual class: inhibitors | 310,000 tested, 3.5% active; active = well fitted inhibition curve with a large enough effect; inconclusive = small, poorly fitted or top-dose-only effect, or another doubt; inactive = no such curve, though single readings can be large or run the other way;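 also: the enzyme is Sfp with the accession as filed and its product quenches rhodamine fluorescence; potency is read from the fitted curve at half-maximal effect; 0% = enzyme reaction without inhibitor and -100% = no enzyme wells; top concentration of the series not given in the record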
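Compounds were incubated with enzyme (final 15 nM) for 15 min at room temperature before substrate addition started the reaction. Fluorescence at 525 nm excitation, 598 nm emission was recorded immediately and after 30 minutes.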
ClpP mod: qHTS Assay for Activators of ClpP. ATP-dependent Clp protease proteolytic subunit (Bacillus subtilis (strain 168)), P80244. purified B. subtilis ClpP, FRET peptide cleavage, 20 min. Potency, µM (highest dose often 57.5 µM), for the others: top-dose activity change, negative = active. 340,000 tested, 1.9% active. AID 651965, 2013; active = well fitted falling curve with a large enough effect; inconclusive = small, poorly fitted or top-dose-only effect; inactive = no such curve, though single readings can be large or run the other way; also: potency is read from the fitted curve at half-maximal effect; the source files actives as falling curves though it sought activators and does not explain the sign; nearly all actives have a fitted effect of over 65% in size; many hits overshoot -100%
Target sequence (P80244 whole entry, looked up): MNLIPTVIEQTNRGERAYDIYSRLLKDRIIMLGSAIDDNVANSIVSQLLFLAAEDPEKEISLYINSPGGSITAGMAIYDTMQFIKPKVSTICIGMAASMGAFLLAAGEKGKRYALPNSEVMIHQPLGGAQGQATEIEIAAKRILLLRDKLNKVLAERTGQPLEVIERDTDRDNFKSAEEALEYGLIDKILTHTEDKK
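ClpP 10 microg/mL final, pH 8 Tris/KCl buffer with BSA, glycerol, Tween-20; compound pinned in; FRET-FV substrate; RT 20 min; Ex320/Em430; ΔFRET vs ADEP 5.8 microM, DMSO, no enzyme.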
Active calls of the source: *; ? = inconclusive; . = not tested or not shown; & = joins results of further samples; [ ] = dose if it differs, or a comment.

Results follow in this order: Menin MLL FP FL, TRPML1 inh, TRPV1 potentiator, gsp antagonist, ClpP mod, Sfp PPTase inh, gsp ag
- Cc1noc(C)c1S(=O)(=O)N(CC(=O)O)c1ccc2c(c1)OCO2
→ ?, -8, -2, -7%, 4.7%, 16%, -66%[inhibitor]
- Cc1ccc(C(=O)/C=C/Nc2ccc([N+](=O)[O-])cc2Br)cc1
→ -1.0, 6, -11, -14%, -16%, -11%, -4%
- CSc1nc2[nH]c3c(c2c2nnnn12)CCCC3
→ 1.5, 9, -9, 4%, -16%, ?, ?
- O=C1CN(S(=O)(=O)c2ccc(Cl)cc2C(F)(F)F)CCN1
→ -6.7, -4, -5, 16%, ., 19%, -12%[15.4 µM]
- Cc1ccc(C)c(S(=O)(=O)Nc2cc(C)on2)c1
→ ., -22, -12, -7%, -3.6%, 11%, ?
- COc1ccc(-c2nc(S(=O)(=O)c3ccccc3)c(N3CCCC3)o2)cc1
→ ., -2, ., ., -1.9%, ., 21%
- COc1ccccc1NC(=O)CCSc1ccc(C)cc1
→ 1.2, 46, 0, 1%, -1.5%, 11%, 6%
- CCOC(=O)c1c(NC(=S)N2CCCCC2)sc2c1CCN(C(=O)OCC)C2
→ 4.6, 10, 1, ?, ., ?, 6%[15.4 µM]
- Cc1ccc(N(C(=O)c2ccccn2)C(C(=O)NC2CCCCC2)c2ccncc2)cc1 (centres undefined)
→ 3.8, -9, 10, -3%, ., 17%, -18%
- COc1ccc(NCc2nnc(SCC(=O)N3CCCc4ccccc43)n2C)cc1
→ 1.2, 4, ?, -15%, -1.4%, -15%, 14%
- CCOC(=O)CNC(=O)CSc1ncnc2c1nnn2-c1ccc(F)cc1
→ 1.4, 23, 4, -5%, -1.2%, 14%, -5%
- COc1ccc(/C=N/n2cncn2)cc1CSc1ccccn1
→ -2.0, ?, 25, 2%, -2.3%, 9%, -17%
- O=C(O)[C@@H]1CCCN1S(=O)(=O)c1cccc2cccnc12
→ ., 0, -2, 8%, -3.7%, ., .
- CC1CCCC(NC(=O)CCCCCn2c(=S)[nH]c3ccsc3c2=O)C1C (centres undefined)
→ ., 5, ., ., -1.3%, ., 19%
- CN(C)S(=O)(=O)N1CCc2ccccc2C1
→ 4.8, 15, -8, -6%, 0.7%, 16%, -2%
- CC(COc1ccccc1)N1CCC(CO)(Cc2ccccc2)CC1 (centres undefined)
→ 1.7, -16, -2, -1%, -0.6%, 20%, -38%
- CC(C)c1nc(SCC(=O)c2c[nH]c3ccccc23)n[nH]1
→ 13, -24, 6, -1%, ., -5%, -3%[15.4 µM]
- CC(c1ccccc1)n1c(-c2ccc(Cl)cc2)n[nH]c1=S (centres undefined)
→ 1.9, 15, 23, 2%, ., -8%, -17%
- COc1ccc2nc(N/C(N)=N/C(=S)Nc3ccc(C)c(C)c3)nc(C)c2c1
→ 7.4, ., 11, ., ., 3%, .
- O=C(CC1C(=O)NCCN1Cc1ccoc1)NCCCn1ncc2ccccc21 (centres undefined)
→ -0.8, 4, 0, 0%, ., -23%, -7%[15.4 µM]
- CCc1ccc(S(=O)(=O)c2nnn3c2nc(N2CCOCC2)c2ccccc23)cc1
→ -0.7, -4, -1, 9%, -7.5%, -11%, ?
- CC(=O)C1=NN(c2ccccc2)C(c2ccc3c(c2)OCO3)N1c1ccccc1 (centres undefined)
→ 11, 5, -18, -14%, -1.2%, -5%, -83%[inhibitor]
- O=C(CCSCCC(=O)NCCN1CCOCC1)NCCN1CCOCC1
→ 0.7, -14, -3, 14%, -1.2%, 15%, 34%
- CSc1ccc(/C=C/C(=O)OCC(=O)N2CCc3ccccc32)cc1
→ ., 11, 6, 8%, ?, ., -31%[inhibitor]
- Cc1ccc2[nH]c3c(c2c1)CN(C(=O)CN1CCCCC1)CC3
→ -17, 27, -6, -7%, -1.2%, 15%, 3%
- Nc1c(C(=O)NCc2ccccc2)c2nc3ccccc3nc2n1-c1ccc2c(c1)OCO2
→ 4.4, -2, -9, 10%, 22µM*, -12%, -7%
- CCN(CC)CCNC(=O)CN1C(=O)COc2ccc(S(=O)(=O)N3CCOCC3)cc21
→ ., 0&-17, -2, 3%, -2.0%&-1.2%, 9%, ?
- COC(=O)[C@@H]1C[C@H]2CC[C@H](O)C[C@H]2N1Cc1ccccc1OS(=O)(=O)c1ccc(C)cc1
→ ?, 0, -19, 2%, -0.4%, 24%&0%, .
- NC(=O)COC(=O)c1c2c(nc3ccccc13)CCCC2
→ 0.2, 30, 2, -4%, ., 0%, -5%[15.4 µM]
- CCOC(=O)c1[nH]c2ccc(Cl)cc2c1NC(=O)c1nonc1C
→ -1.0, 7, 3, ?, -1.7%, -1%, ?
- Cc1ccc(N2C(=O)C3CCCN3C2=S)cc1Cl (centres undefined)
→ -0.1, 13, -14, -5%, 0.0%, 2%, -2%
- COc1ccc(C(=O)NC(=S)Nc2nc(C)c(C(=O)N(C)C)s2)cc1
→ 3.4, -3, 16, -12%, -1.2%, 63µM*, -2%
- Cc1cccc(N2CC(C(=O)NC3CCCCCC3)CC2=O)c1C (centres undefined)
→ ., 15, ., 15%, 4.4%, ., 4%[15.4 µM]
- O=C(C=C1CCN(c2ncc(C(F)(F)F)cc2Cl)CC1)NNC(=O)Nc1ccccc1
→ 0.0, -16, 1, 6%, -19%, 7%, 4%
- O=C(CSCCO)Nc1cccc(C(F)(F)F)c1
→ -1.8, -4, -13, 8%, -0.1%, 21%, 15%
- Cc1ccc([N+](=O)[O-])cc1NC(=O)/C=C/C(=O)O
→ 2.8, ., 26, 7%, 0.6%, -10%, 1%
- COc1cccc(-c2nnc(N(C)C(=O)C3CCOC3)s2)c1 (centres undefined)
→ 4.8, 6, 25, -17%, -19%, 5%, -25%
- COc1ccc(CCNC(=O)[C@H](C)N2C(=O)N3CCc4c([nH]c5ccccc45)[C@@]3(C)C2=O)cc1
→ -6.2, 67, 9, -28%, -2.0%, 17%, -56%[inhibitor]
- CCOC(=O)c1c(NC(=O)C(=O)N/N=C/c2ccc(OCC)cc2)sc2c1CCCCC2
→ 2.5, -10, -6, 8%, 2.7%, 6%, 2%
- COc1ccc(COCC(O)CN2CCOCC2)cc1OC (centres undefined)
→ -1.4, -13, -4, 5%, 2.0%, 18%, 12%
- Cc1ccc(-c2nnn(CC(=O)Nc3ccc(S(=O)(=O)N4CCC(C)CC4)cc3)n2)cc1
→ 9.8, -4, 3, 17%, -2.7%, 4%, -40%[inhibitor]
- CO[C@H]1C=CO[C@@]2(C)Oc3c(C)c(O)c4c(O)c(c(C=NN5CCN(C6CCCC6)CC5)c(O)c4c3C2=O)NC(=O)C(C)=CC=C[C@H](C)[C@H](O)[C@@H](C)[C@@H](O)[C@@H](C)[C@H](OC(C)=O)[C@@H]1C
→ 6.5, ., 6, ., ., 1%, .
- COc1ccc(C2C(C#N)=C(N)Oc3n[nH]c(C)c32)cc1CN1CCN(c2ccc(F)cc2)CC1 (centres undefined)
→ -1.3, 9, -30, 7%, -1.8%, 6%, -27%
- O=C1NC(=S)N/C1=C\c1ccc(Oc2ccc(C(F)(F)F)cc2[N+](=O)[O-])c(Cl)c1
→ 1.8, 3, 6, 11%, -1.1%, 7%, 2%
- Cc1ccc(C2=CC(c3ccccc3)n3ncnc3N2)cc1 (centres undefined)
→ ., -14, ., -4%, 4.2%, ., .
- Cc1ccc(C(=O)NNC(=O)Cc2csc(-c3csc(C)n3)n2)cc1
→ 3.1, 29, 22, 1%, -2.7%, -29%, -5%
- Cc1ccccc1NC(=O)c1ccc([N+](=O)[O-])o1
→ 0.3, 7, ?, -5%, ., 5%, 2%[15.4 µM]
- S=c1[nH]nc(-c2ccc3ccccc3n2)n1-c1ccccc1
→ 0.5, -1, ?, 0%, -3.3%, -5%, ?
- Cc1cc(OCC(=O)NCCCN2CCOCC2)c2c(C)c(C)c(=O)oc2c1
→ ., -9, -9, -2%, 3.6%, 12%, ?
- CC1Cn2c(nnc2-c2ccc(F)cc2)S1 (centres undefined)
→ 2.9, 2, 1, 1%, -3.1%, 7%, -69%[inhibitor]
- COc1ccc(C(=O)CC(=O)C(=O)Nc2c(C)cccc2C)cc1
→ 4.6, -13, -5, -15%, -0.4%, 13%, 21%
- Cc1cccc(NC(=O)CN(C)S(=O)(=O)c2ccc(Br)cc2)n1
→ -0.5, -4, -8, 7%, 1.4%, 20%, 1%
- Cc1occc1-c1nnc(SCC(=O)N2CCN(c3ccccc3)CC2)n1C
→ 1.6, 4, 23, 1%, -1.9%, -17%, 9%

6 of the compounds above, with bars between the fields:
smiles | Menin MLL FP FL | TRPML1 inh | TRPV1 potentiator | gsp antagonist | ClpP mod | Sfp PPTase inh | gsp ag
CO[C@H]1C=CO[C@@]2(C)Oc3c(C)c(O)c4c(O)c(c(C=NN5CCN(C6CCCC6)CC5)c(O)c4c3C2=O)NC(=O)C(C)=CC=C[C@H](C)[C@H](O)[C@@H](C)[C@@H](O)[C@@H](C)[C@H](OC(C)=O)[C@@H]1C | 6.5 | . | 6 | . | . | 1% | .
COc1ccc(C2C(C#N)=C(N)Oc3n[nH]c(C)c32)cc1CN1CCN(c2ccc(F)cc2)CC1 (centres undefined) | -1.3 | 9 | -30 | 7% | -1.8% | 6% | -27%
O=C1NC(=S)N/C1=C\c1ccc(Oc2ccc(C(F)(F)F)cc2[N+](=O)[O-])c(Cl)c1 | 1.8 | 3 | 6 | 11% | -1.1% | 7% | 2%
Cc1ccc(C2=CC(c3ccccc3)n3ncnc3N2)cc1 (centres undefined) | . | -14 | . | -4% | 4.2% | . | .
Cc1ccc(C(=O)NNC(=O)Cc2csc(-c3csc(C)n3)n2)cc1 | 3.1 | 29 | 22 | 1% | -2.7% | -29% | -5%
Cc1ccccc1NC(=O)c1ccc([N+](=O)[O-])o1 | 0.3 | 7 | ? | -5% | . | 5% | 2%[15.4 µM]

High-throughput results from PubChem BioAssay.
